Compound activity deposited in PubChem BioAssay by National Center for Advancing Translational Sciences (NCATS).
PINK1 modulator: PINK1 expression modulation; PINK1 immunofluorescence, high-content cytometry, 24 h; Potency, µM (doses to about 76.6 µM), for the others: top-dose activation (PINK1 increase), usual class: activators; actives 0.2% (n = 410,000); active = well fitted activation curve with a large enough effect; inconclusive = small, poorly fitted or top-dose-only effect; inactive = flat fitted curve, though single readings scatter; cell line not stated here;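 further: % of control where 0% means no effect; nearly all actives have a fitted effect of over 65% in size; a mitochondrial uncoupler was the plate control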
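Cells are seeded, rested 12 hours, then given compound at five concentrations or DMSO for 24 hours. After fixation, blocking and antibody staining, PINK1 amount and mitochondrial localization are scored; CCCP serves as control.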
The depositor's hits bear a star; ? = inconclusive. Potency means the concentration at half of the fitted maximal effect. These rows are one share of the data; count on the stated rates, not on these rows.

smiles	PINK1 modulator
Cc1ccc2c(c1)N(C(=O)Nc1cccc(C)c1C)CCO2	-0.7%
COc1ccc(-n2nc(C(=O)N3CCN(c4ccc(F)cc4)CC3)c3c4ccccc4n(C)c3c2=O)cc1	1.0%
Cc1ccccc1C(=O)NCc1nc2cccnc2n1Cc1ccccc1	1.1%
COc1ccc(N2C(=O)CSC23C(=O)N(Cc2ccc(C)cc2)c2ccccc23)cc1Cl (stereo unspecified)	-1.0%
COc1ccc(CCNC(=O)CCc2c(C)c3cc4c(C)coc4c(C)c3oc2=O)cc1OC	0.7%
Cn1c(=O)c2c(nc(NCCc3ccccc3)n2Cc2cccc(Br)c2)n(C)c1=O	0.4%
Cc1ccc(-n2c(C)nc3c(cnn3-c3ccccc3C)c2=O)cc1F	5.5%
Cc1ccc(CSC2=Nc3ccccc3C3=NC(CC(=O)NC4CCCCC4)C(=O)N23)cc1 (stereo unspecified)	1.6%

smiles	PINK1 modulator
COc1ccc(S(=O)(=O)N2CCC(c3nc4ccccc4s3)CC2)cc1OC	2.6%
O=C(c1cccs1)N1CCCc2cc(NS(=O)(=O)c3ccc(F)cc3F)ccc21	-0.1%
COc1ccc(Cn2ccc3nc(C)c(C(=O)Nc4cc(OC)c(OC)c(OC)c4)cc3c2=O)cc1	0.1%
COc1ccc(-c2ccc(C(=O)N3CCc4c(cnc(C)c4CNS(=O)(=O)N(C)C)C3)o2)cc1	-0.5%
CCOc1ccc(C(=O)Nc2ccc(S(=O)(=O)Nc3nc(C)cc(C)n3)cc2)cc1OC	-0.1%
COc1ccc(N2CCN(C(=O)c3cnc(SC)nc3C)CC2)cc1	2.3%
CSc1cccc(NC(=O)Cn2ncn3c(cc4ccccc43)c2=O)c1	-0.8%
CN(C)c1ccc(NC(=O)CN2CCN(CC(=O)Nc3ccc(Br)cc3)CC2)cc1	0.3%

Two compounds picked at random from those above:
smiles	PINK1 modulator
O=C(c1cccs1)N1CCCc2cc(NS(=O)(=O)c3ccc(F)cc3F)ccc21	-0.1%
CSc1cccc(NC(=O)Cn2ncn3c(cc4ccccc43)c2=O)c1	-0.8%

(list continues)
smiles	PINK1 modulator
COc1ccc(CNC(=O)CCc2c(C)nn(-c3ccc(N4CCCCC4)nn3)c2C)cc1	0.3%
CCC(CC)C(=O)Nc1cccc(-c2nc3cccnc3s2)c1C	0.1%
COc1cccc(Cn2cc(S(=O)(=O)c3ccc(C)cc3)c(=O)c3cc4c(cc32)OCO4)c1	-1.0%
CC(=O)Nc1cccc(NC(=O)c2cc3c(=O)n4cccc(C)c4nc3n2C)c1	0.4%
CC(C)c1ccc(NC(=O)c2cc(S(=O)(=O)NCCC3=CCCCC3)ccc2F)cc1	16%
CC(C)(C)c1ccc(C(=O)N2CCC(c3nc4ccccc4o3)CC2)cc1	3.0%
Cc1ccc(S(=O)(=O)N2CCCc3cc(NC(=O)c4ccc(C(C)(C)C)cc4)ccc32)cc1	-0.2%
COCCCNc1nc2c(-c3ccccc3)nnn2c2ccccc12	-0.2%

smiles	PINK1 modulator
COc1cc(OC)cc(N2C(=O)N(Cc3ccc(C(C)(C)C)cc3)c3ccccc3S2(=O)=O)c1	1.0%
CCOc1ccc(CNC(=O)c2ccc(NC(=O)N3CCSc4ncccc43)cc2)cc1	2.9%
CCc1cccc(NC(=O)Cn2nc(CC)n3c(cc4cc(C)ccc43)c2=O)c1	2.3%
Cc1cc(=O)n(C(C)C(=O)N2CCCc3ccccc32)c2c1c(C)nn2-c1ccccc1 (stereo unspecified)	0.0%
NS(=O)(=O)c1ccc(CCNC(=O)c2ccc3nc(CCc4ccccc4)oc3c2)cc1	-0.1%
CCCc1cc(=O)oc2cc(C)c3c(-c4ccccc4)coc3c12	-2.1%
Fc1cccc(-c2nnn3c2nc(NC2CCCCC2)c2ccccc23)c1	1.0%
CCc1ccc(NC(=O)CSc2nc(-c3cccc(OC)c3)nc3c2Cc2c(CO)cnc(C)c2O3)cc1	-1.0%

smiles	PINK1 modulator
CCOc1ccccc1Nc1ccc2cc(S(=O)(=O)N3CCCCC3)ccc2n1	6.4%
Cc1ccc(CSc2nc(=O)c3c(C)cc(C)nc3n2C2CC2)cc1	4.0%
CCc1ccc(S(=O)(=O)c2cn(Cc3ccccc3F)c3cc(OC)c(OC)cc3c2=O)cc1	1.7%
CCOc1ccc2nc(Cl)c(C3CC(c4ccc(C)cc4)=NN3C(=O)CCC(=O)O)cc2c1 (stereo unspecified)	0.7%
COc1ccc(OCC(=O)N(Cc2cccs2)c2ccc(OC)cc2)cc1	0.4%
CCOC(=O)c1c(C)n(-c2ccccc2)c2ccc(OC(=O)c3cccc(Cl)c3)cc12	-0.9%
NC(=O)c1nn2c(C(F)(F)F)cc(-c3ccc(Br)cc3)nc2c1Cl	-0.1%
O=C(CSc1nc2c(oc3ccccc32)c(=O)[nH]1)Nc1cccc(Cl)c1	5.8%

smiles	PINK1 modulator
COc1ccc(CCCc2nnc(SCC(=O)Nc3ccc(F)cc3)o2)cc1C	4.7%
COc1ccc(/C=C/c2nc(C#N)c(N3CCCCCC3)o2)cc1OC	1.2%
COc1ccc(S(=O)(=O)N(CCc2ccccc2)CC(=O)NCc2ccccc2)cc1	-0.3%
CC(C)(C)c1ccc(C(=O)Nc2ccc3c(c2)CCCN3C(=O)c2cccs2)cc1	-0.5%
O=C(CSc1nc(=O)[nH]c2c1CCC2)NCc1ccccc1	2.5%
Cc1ccc(C)n1-c1c(C(=O)NCCC(C)C)sc2ncccc12	4.3%
Oc1ccc(Br)cc1C1C=C(c2ccc3c(c2)OCO3)NC(c2ccc(Br)cc2)N1 (stereo unspecified)	5.1%
COc1ccccc1CNC(=O)c1c2c(nc3ccccc13)C(=O)N(C1CCCCC1)C2	1.4%

Part of the list above, as labelled records:
O=C(CSc1nc(=O)[nH]c2c1CCC2)NCc1ccccc1
  PINK1 modulator = 2.5%
Cc1ccc(C)n1-c1c(C(=O)NCCC(C)C)sc2ncccc12
  PINK1 modulator = 4.3%
Oc1ccc(Br)cc1C1C=C(c2ccc3c(c2)OCO3)NC(c2ccc(Br)cc2)N1 (stereo unspecified)
  PINK1 modulator = 5.1%
COc1ccccc1CNC(=O)c1c2c(nc3ccccc13)C(=O)N(C1CCCCC1)C2
  PINK1 modulator = 1.4%

Other results:
smiles	PINK1 modulator
CCOC(=O)COc1ccc(F)cc1C(=O)c1ccn2nc(-c3ccc(Cl)cc3)cc2n1	0.3%
CCn1c(C(=O)N2CCC(C(=O)N3CCN(c4ccc(OC)cc4)CC3)CC2)cc2sccc21	-0.2%
CCOc1ccc(NC(=O)c2nc(S(=O)(=O)Cc3ccccc3)ncc2Cl)cc1	0.6%
O=C(CN1CCSc2ccccc21)N1CCN(c2ccccc2)CC1	0.2%
COc1ccc(-c2c(C)nn3c(N4CCN(c5ccccc5)CC4)cc(C)nc23)cc1OC	9.4%
CC(C)Cn1cc(NC(=O)N2CCN(c3cccc(C(F)(F)F)c3)CC2)c2ccccc2c1=O	-2.1%
CCOc1ccc(CNC(=O)C2CCN(S(=O)(=O)c3c(C)noc3/C=C/c3ccc(C)cc3)CC2)cc1OC	0.0%
CCOc1ccc(C2CC(=O)Nc3nc(SCc4ccccc4C)[nH]c(=O)c32)cc1OC (stereo unspecified)	3.6%

smiles	PINK1 modulator
CCCCCCCCCOC(=O)CNc1nc(C#N)nc(NCC(=O)OCCCCCCCCC)n1	1.5%
CCOC(=O)c1cccc(NC(=O)c2ncoc2-c2ccco2)c1	2.3%
CC1CCN(c2nc3ccc(C(=O)NCc4ccc(Cl)cc4)cc3s2)CC1	0.6%
COc1ccc(NC(=O)Cn2c(=O)n(-c3ccccc3)c(=O)c3ccc(C(=O)NCc4ccc5c(c4)OCO5)cc32)cc1	0.6%
Cc1ccc(NC(=O)C2CCN(c3nc4ccccc4nc3C(F)(F)F)CC2)cc1F	5.6%
CCc1nc2ccccc2n1CCCCOc1ccc(Cl)cc1	?
COc1ccc2oc(-c3ccc(C)c(NC(=O)Cc4ccc(Cl)cc4)c3)nc2c1	1.6%
O=C1Cc2cc(S(=O)(=O)Nc3cccc(C(F)(F)F)c3)cc3c2N1CCC3	1.2%

smiles	PINK1 modulator
CC(=O)c1ccc(NC(=O)COc2ccccc2-c2nc(-c3cccc(C)c3)no2)cc1	0.3%
CCOc1ccc(-n2nc3ccc(NC(=O)COc4ccccc4)cc3n2)cc1	-0.1%
CCOc1ccc(OCC(=O)Nc2ccc(S(=O)(=O)Nc3cc(C)on3)cc2)cc1	1.4%
CCC(=O)Nc1ccc2nc(SCCOc3ccccc3)sc2c1	1.4%
COc1ccc(OCC(=O)NC(Cc2c[nH]c3ccccc23)C(=O)O)cc1 (stereo unspecified)	-0.3%
Cc1cc(C)n(CCC(=O)NCC2Cc3cc(Cl)cc(-c4cnccn4)c3O2)n1 (stereo unspecified)	0.7%
Cc1ccc(Cl)cc1N1CCN(C(=O)CCC(=O)Nc2ccc3nc(N4CCC(C)CC4)cc(C)c3c2)CC1	-1.3%
CCOc1ccc(-c2nnc(SCC(=O)NCc3ccc(C)cc3)nc2-c2ccc(OCC)c(OC)c2)cc1OC	3.8%

smiles | PINK1 modulator
Cc1ccc(CSc2nc3c([nH]c4ccccc43)c(=O)n2C)cc1 | -0.2%
CC1(C)CC(=O)c2cc(C(=O)Nc3ccc(Br)cc3)c(=O)[nH]c2C1 | -0.3%
CCOc1cccc(C2C=C(c3ccc4c(c3)OCO4)NC(c3ccc(Br)cc3)N2)c1O (stereo unspecified) | -0.3%
COc1ccc(C)cc1NC(=O)NCc1ccc2c(c1)CCN2C(=O)c1ccccc1 | -0.9%
Cc1cc(C)c2nc(N3CCCC(C(=O)NCc4cccc(Cl)c4)C3)sc2c1 (stereo unspecified) | -1.9%
CCc1nc2c(cnn2-c2ccc(C)cc2)c(=O)n1Cc1ccccc1 | 3.6%
CCc1c(C)sc2c1CCN(C(=O)Nc1cc(OC)c(OC)c(OC)c1)C2c1ccccc1 (stereo unspecified) | 0.8%
Cc1noc(NS(=O)(=O)c2ccc(NC(=O)c3ccc(Br)cc3)cc2)c1C | 0.8%

smiles | PINK1 modulator
Cc1ccc2nc(COc3ccccc3NC(=O)c3ccccc3C)cc(=O)n2c1 | 0.3%
Cc1ccc(C)c(N2CCN(S(=O)(=O)c3ccc(-c4cc(C(F)(F)F)on4)s3)CC2)c1 | -0.1%
COc1ccc(N2CCN(Cc3nc4c(c(=O)[nH]c(=O)n4C)n3Cc3ccccc3C)CC2)cc1 | 0.3%
Cc1cccc(Oc2nc3c(c(=O)n(C)c(=O)n3C)n2Cc2ccccc2)c1C | -0.1%
CCOc1ccc(-n2nc(CO)c(C(=O)NCC(C)O)n2)cc1 (stereo unspecified) | 0.0%
CC(C)(C)C(=O)NCC(c1ccc2c(c1)OCO2)N1CCOCC1 (stereo unspecified) | 0.1%
CCN(CC)c1cc(C)nc2nc(-c3ccc(C)cc3)nn12 | 0.0%
Cc1ccc(Cl)cc1NC(=O)/C(C#N)=C/c1c(C)n(Cc2ccccc2)c2ccccc12 | 3.2%

smiles | PINK1 modulator
CCOc1ccc(C2=NC(c3cccs3)=Nc3ccc(CC)cc3N2)cc1OCC | -0.9%
CCC1(C2CCN(C(=O)c3coc4c3C(=O)CCC4)CC2)NC(=O)N(CCc2scnc2C)C1=O (stereo unspecified) | 0.5%
COc1ccc(Cn2c(=O)[nH]c3cc(C(=O)NCCC(C)C)ccc3c2=O)cc1 | 1.3%
Cc1ccccc1CN1C(=O)c2ccccc2S(=O)c2ccc(C(=O)NCc3ccc4c(c3)OCO4)cc21 (stereo unspecified) | 0.2%
CCCC(=O)Nc1cccc(-c2nc3cc(C)c(C)cc3o2)c1C | 0.6%
Cc1ccc(-n2nc(C)c3c(C)cc(=O)n(CC(=O)NC(C)c4ccccc4)c32)cc1 (stereo unspecified) | 1.3%
Cc1cc(NC(=O)c2ccc3c(c2)N(Cc2cccc(Cl)c2)C(=O)c2ccccc2S3(=O)=O)ccc1Br | 2.3%
COc1ccc(N2CCN(C(=O)c3cnn(-c4ccc(F)cc4)c3-n3cccc3)CC2)cc1 | -0.8%

smiles | PINK1 modulator
CCOc1ccc(-c2nc(SCC(=O)NCCCOC)c(-c3ccccc3)[nH]2)cc1 | 2.6%
CCOC(=O)c1sc(NC(=O)/C=C/c2ccc(OCC)cc2)c(C(=O)OCC)c1C | 2.5%
CCOC(=O)C1CCN(C(=O)c2ccc(NC(=O)c3nsc4ccccc34)cc2)CC1 | 0.9%
O=C(Nc1cc(C(=O)NC2CCOCC2)c2c(c1)ncn2C1CCCC1)c1ccccc1 | -0.8%
Cc1ccc(S(=O)(=O)C(CNC(=O)C(=O)NCc2ccccc2C)c2cccs2)cc1 (stereo unspecified) | 0.6%
O=C(NCc1nc2ccccc2[nH]1)c1cccc(Cl)c1 | -1.8%
Cc1ccccc1OCC(=O)OCc1cc(=O)n2nc(C3CC3)sc2n1 | 0.7%
O=C(Cc1csc2ccccc12)NCc1cccc(Br)c1 | 2.7%

smiles | PINK1 modulator
Cc1ccc(-n2c(=O)c3cccnc3n2CC(=O)Nc2ccc(C)cc2Cl)cc1 | 1.6%
CCOc1ccc(Cn2c(-c3ccc(OCC)c(OC)c3)nc3ccccc32)cc1OC | -1.2%
CCc1cccc(CC)c1NC(=O)C(Cc1ccccc1)NS(=O)(=O)c1cccc2nsnc12 (stereo unspecified) | -1.3%
CC(=O)Nc1ccccc1-c1nc(CNC(=O)c2ccc(C)cc2)c(C)o1 | -0.3%
Cn1c(=O)c2c(SCC(=O)N3CCc4ccccc43)nc(-c3cccc(F)c3)nc2n(C)c1=O | 1.8%
Cc1cccc(C)c1Nc1c(-c2ccc(Cl)s2)nc2ncccn12 | -0.3%
COc1ccc(C)cc1NC(=O)C(=O)NCC(c1cccnc1)N1CCN(c2ccccc2F)CC1 (stereo unspecified) | 0.1%
